Compound activity: PubChem BioAssay, Broad Institute
Vaccinia inh – blocks a specific stage of Vaccinia orthopoxvirus infection, primary screen, cell-based, single point; Vaccinia-infected cells, mCherry/Venus stage reporter fluorescence; stronger effect = lower value; some inactives read as strong as hits; activity change (mCherry), % (concentration not given with the values); actives 0.01% (n = 89,000);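 active = mCherry past -33% and 40 or more points under the early reporter, replicates agreeing; inconclusive = past -33% without that gap or agreement; tested in A549 cells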;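 note: scaled between vehicle wells and reference inhibitor wells; 23 nL library stock went into each well; one replicate is shown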
Vaccinia inh Venus – further read-out of Vaccinia inh, marked with its call; activity change (Venus), %; measured here: Venus reporter, other viral stage;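 negative = less Venus signal; first of two replicates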
Active calls of the source: *. An excerpt, so the mix of outcomes need not match the whole.

Screening O=C(N[C@@H]1CC[C@@H](CCNS(=O)(=O)c2ccc(F)cc2)O[C@@H]1CO)C1CCCC1 returned Vaccinia inh -17.4 and Vaccinia inh Venus -5.5.
Screening CCCNC(=O)C[C@@H]1CC[C@H]2[C@@H](COC[C@H](O)CN2CC2CCCCC2)O1 returned Vaccinia inh -4.5 and Vaccinia inh Venus -6.8.
Screening C[C@H](CO)N1C[C@H](C)[C@H](CN(C)S(=O)(=O)c2ccc(Cl)cc2)Oc2ccc(NC(=O)C3CCCCC3)cc2CC1=O returned Vaccinia inh -6.0 and Vaccinia inh Venus 3.5.
For C[C@H]1CCCCO[C@@H](CN(C)C(=O)Nc2ccc3c(c2)OCO3)[C@@H](C)CN([C@@H](C)CO)C(=O)c2cc(NC(=O)Nc3ccc(C(F)(F)F)cc3)ccc2O1 the results were Vaccinia inh -20.5 and Vaccinia inh Venus -6.2.
`CC=Cc1ccc2n(c1=O)C[C@H]1[C@H](CO)[C@@H](C(=O)NCCOC)[C@@H]2N1Cc1ccccc1` (mixture of isomers) gave Vaccinia inh 4.7 and Vaccinia inh Venus -3.4.
For CO[C@H]1CN(C)C(=O)c2cc(NC(=O)C3CCC3)ccc2OC[C@@H](C)N(Cc2ccncc2)C[C@H]1C the results were Vaccinia inh 8.3 and Vaccinia inh Venus 4.1.
For C[C@@H]1CCCCO[C@@H](CN(C)S(=O)(=O)c2cccs2)[C@H](C)CN([C@@H](C)CO)C(=O)c2cc(NS(=O)(=O)c3cn(C)cn3)ccc2O1 the results were Vaccinia inh 11.1 and Vaccinia inh Venus 5.4.
`CC(C)CC#Cc1ccc([C@@H]2[C@H]3CN(S(=O)(=O)c4ccc(F)cc4)CCCCN3[C@H]2CO)cc1` gave Vaccinia inh -2.3 and Vaccinia inh Venus -14.8.
`CC=Cc1ccc2n(c1=O)C[C@@H]1[C@@H](CO)[C@H](C(=O)N3CCc4ccccc4C3)N(C(=O)C3CC3)[C@H]21` (mixture of isomers) gave Vaccinia inh -3.4 and Vaccinia inh Venus 0.4.
For CC(=O)n1cc([C@H]2C=C(C(=O)N3CCN(Cc4ccc5c(c4)OCO5)CC3)O[C@@H](OCCCCO)C2)c2ccccc21 the results were Vaccinia inh -13.3 and Vaccinia inh Venus -9.4.
For COc1ccc(S(=O)(=O)N[C@@H]2C=C[C@H](CC(=O)NCCc3ccccc3)O[C@H]2CO)cc1 the results were Vaccinia inh -5.4 and Vaccinia inh Venus -5.7.
Screening CO[C@@H]1CN(C)C(=O)c2cc(NC(C)=O)ccc2OC[C@H](C)N(Cc2ccccc2F)C[C@@H]1C returned Vaccinia inh 5.8 and Vaccinia inh Venus -1.0.
Screening Cc1noc(C)c1NC(=O)N(C)C[C@@H]1Oc2c(NS(=O)(=O)c3c(C)noc3C)cccc2C(=O)N([C@@H](C)CO)C[C@@H]1C returned Vaccinia inh 0.2 and Vaccinia inh Venus 1.0.
C[C@@H]1CN([C@H](C)CO)C(=O)Cc2cc(NC(=O)NC3CCCCC3)ccc2O[C@@H]1CN(C)C was read as Vaccinia inh 19.2 and Vaccinia inh Venus 9.7.
C[C@H](CO)N1C[C@H](C)[C@H](CN(C)CC2CC2)Oc2cc(C#Cc3cccc(F)c3)ccc2S1(=O)=O was read as Vaccinia inh -25.0 and Vaccinia inh Venus -9.2.

Grouped by structure, the entries above with nitrogen in an aromatic ring (six)
`CC=Cc1ccc2n(c1=O)C[C@H]1[C@H](CO)[C@@H](C(=O)NCCOC)[C@@H]2N1Cc1ccccc1` (mixture of isomers) gave Vaccinia inh 4.7 and Vaccinia inh Venus -3.4.
For CO[C@H]1CN(C)C(=O)c2cc(NC(=O)C3CCC3)ccc2OC[C@@H](C)N(Cc2ccncc2)C[C@H]1C the results were Vaccinia inh 8.3 and Vaccinia inh Venus 4.1.
For C[C@@H]1CCCCO[C@@H](CN(C)S(=O)(=O)c2cccs2)[C@H](C)CN([C@@H](C)CO)C(=O)c2cc(NS(=O)(=O)c3cn(C)cn3)ccc2O1 the results were Vaccinia inh 11.1 and Vaccinia inh Venus 5.4.
`CC=Cc1ccc2n(c1=O)C[C@@H]1[C@@H](CO)[C@H](C(=O)N3CCc4ccccc4C3)N(C(=O)C3CC3)[C@H]21` (mixture of isomers) gave Vaccinia inh -3.4 and Vaccinia inh Venus 0.4.
For CC(=O)n1cc([C@H]2C=C(C(=O)N3CCN(Cc4ccc5c(c4)OCO5)CC3)O[C@@H](OCCCCO)C2)c2ccccc21 the results were Vaccinia inh -13.3 and Vaccinia inh Venus -9.4.
Screening Cc1noc(C)c1NC(=O)N(C)C[C@@H]1Oc2c(NS(=O)(=O)c3c(C)noc3C)cccc2C(=O)N([C@@H](C)CO)C[C@@H]1C returned Vaccinia inh 0.2 and Vaccinia inh Venus 1.0.

(listing goes on)
For C[C@@H]1CN([C@@H](C)CO)C(=O)c2cc(NC(=O)Cc3cn(C)c4ccccc34)ccc2O[C@@H]1CN(C)Cc1ccc(Oc2ccccc2)cc1 the results were Vaccinia inh inconclusive.
Screening C[C@H](CO)N1C[C@H](C)[C@H](CN(C)Cc2ccc(C(=O)O)cc2)Oc2cc(C#CCC3CCCC3)ccc2S1(=O)=O returned Vaccinia inh 0.5 and Vaccinia inh Venus 6.0.
Screening Cc1cc(C(=O)Nc2cccc3c2O[C@H](CN(C)C(=O)Nc2ccccc2)[C@@H](C)CN([C@H](C)CO)C3=O)n(C)n1 returned Vaccinia inh 6.3 and Vaccinia inh Venus 10.7.
NCC[C@@H]1CC[C@H](NC(=O)Nc2ccc(F)cc2)[C@H](CO)O1 was read as Vaccinia inh 2.4 and Vaccinia inh Venus 3.5.
`Cc1ccc(-c2cnc3c(c2)C(=O)N([C@@H](C)CO)C[C@@H](C)[C@H](CN(C)CC2CCOCC2)O3)cc1` gave Vaccinia inh -7.0 and Vaccinia inh Venus -7.7.
For COc1ccc(CN(C)C[C@H]2Oc3c(NC(=O)Nc4ccc(F)cc4)cccc3C(=O)N([C@H](C)CO)C[C@H]2C)cc1 the results were Vaccinia inh -11.3 and Vaccinia inh Venus 1.9.
O=C(NCC[C@@H]1CC[C@H](NC(=O)c2ccccc2F)[C@H](CO)O1)c1ccc2c(c1)OCO2 was read as Vaccinia inh -12.0 and Vaccinia inh Venus -12.6.
For C[C@H](CO)N1C[C@H](C)[C@H](CN(C)C(=O)c2ccc(F)cc2)Oc2ncc(-c3ccc(F)cc3)cc2C1=O the results were Vaccinia inh -15.9 and Vaccinia inh Venus -9.7.
Screening CCCC#Cc1cnc2c(c1)C(=O)N([C@@H](C)CO)C[C@@H](C)[C@H](CN(C)Cc1ccccc1)O2 returned Vaccinia inh -5.3 and Vaccinia inh Venus -9.5.
`COc1ccc(S(=O)(=O)N(C)C[C@@H]2OCCCC[C@H](C)Oc3ccc(NC(=O)Nc4ccc(C(F)(F)F)cc4)cc3C(=O)N([C@H](C)CO)C[C@H]2C)cc1` gave Vaccinia inh -13.9 and Vaccinia inh Venus -6.0.
C[C@@H]1CCCCO[C@@H](CN(C)C(=O)C2CCCCC2)[C@H](C)CN([C@@H](C)CO)C(=O)c2cc(NC(=O)c3ccncc3)ccc2O1 was read as Vaccinia inh -5.8 and Vaccinia inh Venus -0.5.
Screening C[C@H]1CN([C@@H](C)CO)C(=O)CCCn2cc(nn2)CO[C@@H]1CN(C)S(=O)(=O)c1cccc(F)c1 returned Vaccinia inh 12.5 and Vaccinia inh Venus 9.7.
For C[C@@H]1CN([C@H](C)CO)S(=O)(=O)c2ccc(-c3cncnc3)cc2O[C@@H]1CN(C)C(=O)c1ccc2c(c1)OCO2 the results were Vaccinia inh 16.6 and Vaccinia inh Venus 4.3.
COc1ccc(S(=O)(=O)Nc2cccc3c2O[C@@H](CN(C)S(=O)(=O)c2c(C)noc2C)[C@H](C)CN([C@H](C)CO)C3=O)cc1 was read as Vaccinia inh 1.7 and Vaccinia inh Venus -6.8.
For CN(C)CC(=O)Nc1ccc2c(c1)[C@@H]1C[C@@H](CC(=O)NC3CCCCC3)O[C@H](CO)[C@@H]1O2 the results were Vaccinia inh -0.3 and Vaccinia inh Venus -5.2.
For COc1ccc(S(=O)(=O)N(C)C[C@@H]2OCCCC[C@H](C)Oc3ccc(NC(=O)CCC(F)(F)F)cc3C(=O)N([C@@H](C)CO)C[C@@H]2C)cc1 the results were Vaccinia inh inconclusive.
CCC(=O)N1C[C@@H]2[C@H](c3ccccc31)[C@H](CO)N2C(=O)Nc1ccccc1 was read as Vaccinia inh 8.6 and Vaccinia inh Venus 19.3.
`C[C@@H]1CN([C@H](C)CO)C(=O)c2cc(NS(=O)(=O)c3ccc(Cl)cc3)ccc2O[C@@H]1CN(C)S(=O)(=O)c1ccc(Cl)cc1` gave Vaccinia inh inconclusive.
Screening N#Cc1ccc(-c2ccc(C3[C@@H]4CN(C(=O)c5ccc6c(c5)OCO6)C[C@H]3N4)cc2)cc1 (stereo partly specified) returned Vaccinia inh inconclusive and Vaccinia inh Venus -11.5.
C[C@@H]1CCCCO[C@@H](CN(C)Cc2ccccc2)[C@H](C)CN([C@H](C)CO)C(=O)c2cc(NC(=O)NC3CCCCC3)ccc2O1 was read as Vaccinia inh inconclusive.
`C[C@H](CO)N1C[C@H](C)[C@@H](CN(C)C(=O)C2CCCCC2)Oc2cc(C#C[C@@H](C)O)ccc2S1(=O)=O` gave Vaccinia inh -11.3 and Vaccinia inh Venus -8.8.
COc1ccc(CN(C)C[C@@H]2Oc3ccc(NS(=O)(=O)c4cccs4)cc3C(=O)N([C@H](C)CO)C[C@@H]2C)cc1 was read as Vaccinia inh 8.6 and Vaccinia inh Venus 9.5.
For CC(=O)N(C)C[C@H]1Oc2cc(C#Cc3cccc(F)c3)ccc2S(=O)(=O)N([C@@H](C)CO)C[C@H]1C the results were Vaccinia inh -14.8 and Vaccinia inh Venus -17.0.
`CCNC(=O)[C@H]1[C@H](CO)[C@H]2Cn3c(ccc(C4=CCCCC4)c3=O)[C@@H]1N2Cc1ccncc1` gave Vaccinia inh 4.4 and Vaccinia inh Venus 4.9.
For CC(C)(O)C#Cc1ccc([C@@H]2[C@@H](CO)N3CCCCN(C(=O)c4cccnc4)C[C@H]23)cc1 the results were Vaccinia inh 19.1 and Vaccinia inh Venus 2.9.
Screening C[C@H]1CN([C@@H](C)CO)C(=O)CCCn2cc(nn2)CO[C@@H]1CN(C)CC1CCCCC1 returned Vaccinia inh 0.6 and Vaccinia inh Venus 0.1.
Screening CO[C@H]1CN(C)C(=O)c2cc(NC(=O)c3ccccc3)ccc2OC[C@@H](C)N(C(=O)CN(C)C)C[C@H]1C returned Vaccinia inh 1.5 and Vaccinia inh Venus -7.2.
`CCCNC(=O)C[C@H]1C[C@@H]2c3cc(NC(=O)Nc4ccc(OC)cc4)ccc3O[C@@H]2[C@H](CO)O1` gave Vaccinia inh 18.8 and Vaccinia inh Venus 8.0.
Screening C[C@H](CO)N1C[C@H](C)[C@@H](CN(C)S(=O)(=O)c2ccccc2)Oc2cc(Br)ccc2S1(=O)=O returned Vaccinia inh inconclusive.
`O=C(c1ccccn1)N1CC[C@@H]2[C@H](CO)Nc3ccc(Br)cc3[C@@H]21` gave Vaccinia inh -5.6 and Vaccinia inh Venus 1.1.
Screening CC(C)NC(=O)Nc1ccc2c(c1)CC(=O)N([C@H](C)CO)C[C@H](C)[C@H](CN(C)C(=O)Nc1ccc(C(F)(F)F)cc1)O2 returned Vaccinia inh 13.1 and Vaccinia inh Venus 10.2.
Screening O=C(C[C@@H]1C[C@@H]2c3cc(NS(=O)(=O)c4ccc(F)cc4)ccc3O[C@@H]2[C@@H](CO)O1)NC1CCCC1 returned Vaccinia inh 3.4 and Vaccinia inh Venus -0.1.
CC(C)NC(=O)Nc1cccc2c1O[C@H](CN(C)Cc1ccc(C(=O)Nc3ccccc3N)cc1)[C@H](C)CN([C@@H](C)CO)C2=O was read as Vaccinia inh 12.5 and Vaccinia inh Venus -1.1.
C[C@@H]1CCCCO[C@H](CN(C)C(=O)C2CCCCC2)[C@H](C)CN([C@@H](C)CO)C(=O)c2cc(N(C)C)ccc2O1 was read as Vaccinia inh inconclusive.
For COc1ccc(-c2ccc([C@@H]3[C@@H](C#N)N(C(=O)c4cccnc4)[C@H]3CO)cc2)cc1 the results were Vaccinia inh 13.8 and Vaccinia inh Venus 2.2.
Screening CC=Cc1ccc2n(c1=O)C[C@@H]1[C@@H](CO)[C@H](C(=O)NCCC)[C@H]2N1CC1CC1 (mixture of isomers) returned Vaccinia inh 23.2 and Vaccinia inh Venus 11.4.
Screening C[C@H](CO)N1C[C@H](C)[C@H](CN(C)Cc2ccc(C(=O)O)cc2)Oc2ccc(NC(=O)C3CC3)cc2CC1=O returned Vaccinia inh 18.3 and Vaccinia inh Venus 14.4.
For COCC(=O)N(C)C[C@H]1Oc2cc(-c3ccc(C#N)cc3)ccc2S(=O)(=O)N([C@@H](C)CO)C[C@@H]1C the results were Vaccinia inh 13.0 and Vaccinia inh Venus 11.6.
For CN(C)C(=O)C[C@@H]1CC[C@H]2[C@@H](COC[C@H](O)CN2CC2CCCC2)O1 the results were Vaccinia inh 3.8 and Vaccinia inh Venus -4.7.
C[C@H]1CN([C@@H](C)CO)S(=O)(=O)c2ccc(C#Cc3ccncc3)cc2O[C@@H]1CN(C)C(=O)Nc1ccc2c(c1)OCO2 was read as Vaccinia inh inconclusive.
For COc1ccc2c3c([nH]c2c1)[C@H](CO)N(C(=O)C1CCC1)CC31CCN(Cc2nccs2)CC1 the results were Vaccinia inh -13.0 and Vaccinia inh Venus -8.3.
COCc1cn(CC[C@H]2CC[C@H](NC(=O)Nc3ccc(C(F)(F)F)cc3)[C@H](CO)O2)nn1 was read as Vaccinia inh 7.7 and Vaccinia inh Venus 0.9.
`CCCNC(=O)N[C@H]1CC[C@H](CC(=O)N2CCN(C)CC2)O[C@H]1CO` gave Vaccinia inh 6.2 and Vaccinia inh Venus 6.4.
For Cc1noc(C)c1NC(=O)N(C)C[C@H]1OCCCC[C@H](C)Oc2ccc(NS(=O)(=O)c3c(C)noc3C)cc2C(=O)N([C@@H](C)CO)C[C@@H]1C the results were Vaccinia inh 14.9 and Vaccinia inh Venus 5.5.
Screening C[C@H](CO)N1C[C@H](C)[C@H](CN(C)C)Oc2c(NC(=O)Nc3ccccc3)cccc2C1=O returned Vaccinia inh 3.1 and Vaccinia inh Venus -2.0.
